D2 potentiator – potentiates the human D2 dopamine receptor allosterically; DiscoveRx D2 beta-arrestin cells, luminescence, 90 min; 100% = 57 uM dopamine signal; P14416; 0.23% of 360,000 active; potentiation, % (test concentration not listed); active = potentiation of 50% or more; inconclusive = 30% to 50%; inactive = 30% or less;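 also: compound concentration not given in the record; tested on top of an EC20 dose of dopamine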
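PathHunter D2 cells, attached overnight at 37 deg C, received compound in DMSO plus dopamine at EC20 (50 nM final) for 90 min at 37 deg C. Beta-arrestin recruitment was read as luminescence after 1 h with detection reagent at ambient temperature.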
TRPML1 ag – activates the human TRPML1 channel | TRPML1-expressing cells, Ca2+ dye fluorescence, FDSS; host cell line not named in the record; reference of the full effect not given here | activation, % (concentration not given with the values) | 0.12% of 410,000 active; in the data active = activation above about 50%; inconclusive = about 30% to 50%; inactive = below about 30%; also: 0% is about no effect; the text of the record puts the active cut at 80%
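Cells: TRPML1-DL, 1X Tet inducer, ~16 h at 37 degrees C/5% CO2. Dye: ABD Ca8 no-wash + quencher, 45-90 min RT. Read: 10 s baseline, compound add, 110 s agonist phase; 54-4 EC80 (4uM final), 110 s antagonist phase.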
PINK1 expr mod – PINK1 expression modulation | PINK1 immunofluorescence, high-content cytometry, 24 h | Potency, µM (series often up to 76.6 µM), inactives show at the highest dose activation (PINK1 increase), most hits filed as activators | 0.2% of 410,000 active; active = well fitted activation curve with a large enough effect; inconclusive = small, poorly fitted or top-dose-only effect; inactive = flat fitted curve, though single readings scatter; cell line not stated here;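 also: potency is read from the fitted curve at half-maximal effect; % of control where 0% means no effect; nearly all actives have a fitted effect of over 65% in size; a mitochondrial uncoupler was the plate control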
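Compound titrations (5 concentrations, 24 h) on a stable cell line; DMSO and CCCP controls. Endpoint: fixed-cell PINK1 immunofluorescence with mitochondrial, cell and nuclear markers, scanned by microplate cytometer.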
CtBP-E1A inh – CtBP/E1A binding inhibition; AlphaScreen GST-E1A/His-CtBP binding, 1536-well; stronger effect = lower value; control for the full effect not named in the record; activity change, % (no concentration beside the values); 0.49% of 340,000 active; AID 651724; in the data active means activity change below about -65%; inconclusive means about -30% to -65%; inactive means above about -30%; also: % is scaled to controls: 0 for no effect and ±100 for the full control effect; compound concentration not given in the record
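AlphaScreen with 125 nM GST-E1A and 125 nM His-CtBP (5X stocks) in Tris pH 8.0, 300 mM NaCl, BSA, Tween 20, TCEP. Compounds preincubated 2 h at 37 deg C, then glutathione donor/nickel acceptor beads added for 1 h at 37 deg C in dark.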
D2 agonist – human D2 receptor agonism in beta-arrestin assay. DiscoveRx PathHunter D2 beta-arrestin, luminescence, 90 min; 100% = 57 uM dopamine signal. 0.084% of 360,000 active. AID 624465. P14416. activation, % (test concentration not listed); in the data active = activation above about 40%; inconclusive = about 15% to 40%; inactive = below about 15%; also: compound concentration not given in the record; the text of the record calls up to 30% inactive
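Agonist mode: compounds alone added to overnight-plated D2 PathHunter cells for 90 min at 37 C, with 57 uM final dopamine (EC100) defining full response. Beta-arrestin recruitment detected by chemiluminescent reagent, read after 1 h at ambient temperature.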
Six1-Eya2 blk – blocks human Six1 binding to Eya2; AlphaScreen GST-Six1/His-Eya2 binding, biochemical; stronger effect = lower value; control for the full effect not named in the record; Q15475+O00167; 0.56% of 360,000 active; activity change, % (no concentration beside the values); in the data active = activity change below about -65%; inconclusive = about -30% to -65%; inactive = above about -30%; also: % is scaled to controls: 0 for no effect and ±100 for the full control effect; compound concentration not given in the record
Target sequence (O00167 whole entry, looked up): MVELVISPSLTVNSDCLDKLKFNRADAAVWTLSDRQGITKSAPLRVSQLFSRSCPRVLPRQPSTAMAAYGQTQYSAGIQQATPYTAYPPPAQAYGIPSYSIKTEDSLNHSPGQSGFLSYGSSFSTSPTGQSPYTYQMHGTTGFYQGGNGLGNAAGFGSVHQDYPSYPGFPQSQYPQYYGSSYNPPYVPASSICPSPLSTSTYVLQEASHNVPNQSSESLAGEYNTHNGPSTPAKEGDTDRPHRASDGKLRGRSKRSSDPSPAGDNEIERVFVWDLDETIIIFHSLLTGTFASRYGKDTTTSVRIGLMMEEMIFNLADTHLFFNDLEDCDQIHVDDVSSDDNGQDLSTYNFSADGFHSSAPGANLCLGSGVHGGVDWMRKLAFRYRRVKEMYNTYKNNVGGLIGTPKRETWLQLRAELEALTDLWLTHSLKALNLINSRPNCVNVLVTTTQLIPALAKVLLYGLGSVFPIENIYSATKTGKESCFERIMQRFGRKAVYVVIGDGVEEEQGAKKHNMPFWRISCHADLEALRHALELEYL
Target sequence (Q15475 whole entry, looked up): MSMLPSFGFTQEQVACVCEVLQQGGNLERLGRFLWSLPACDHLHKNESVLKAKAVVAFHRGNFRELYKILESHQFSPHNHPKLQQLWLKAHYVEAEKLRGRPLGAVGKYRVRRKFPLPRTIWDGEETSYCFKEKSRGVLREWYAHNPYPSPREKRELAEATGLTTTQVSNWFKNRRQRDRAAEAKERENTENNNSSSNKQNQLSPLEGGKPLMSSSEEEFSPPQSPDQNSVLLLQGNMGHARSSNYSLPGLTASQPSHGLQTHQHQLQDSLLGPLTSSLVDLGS
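Six1/Eya2 binding was read as AlphaScreen signal after compounds were pinned into GST-Six1 plus His-tagged Eya2 (5X stock 250/500 nM) in pH 8.0 Tris/NaCl/TCEP buffer, beads added, then incubated 1 h, 37 C, dark.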
An asterisk follows results filed as active; ? = inconclusive; . = no result given; & = joins results of further samples; [ ] = remark or other dose.

SMILES | D2 potentiator | TRPML1 ag | PINK1 expr mod | CtBP-E1A inh | D2 agonist | Six1-Eya2 blk
Cc1cc(C)c(S(=O)(=O)c2ccccc2C)c(Cl)n1 | -7.5 | -0.6 | -3.3%[38.3 µM] | 15.9 | 2.2 | 4.3
CCOCc1cc(C)[nH]c(=O)c1C#N | -5.1 | -0.7 | 1.2% | -1.1 | -2.0 | -2.1
O=C(NC(=S)NC(c1ccccc1)c1ccncc1)c1ccccc1 (configuration not stated) | -16.6 | 4.1 | -0.7% | -5.5 | 10.2 | -7.1
COc1ccc(C(=O)Nc2ccc(S(=O)(=O)Nc3nccnc3OC)cc2)cc1OC | -17.0 | -0.7 | 0.5% | -6.5 | 0.0 | -7.9
Cc1ccc(NS(=O)(=O)c2ccc3c(c2)N(C)CCO3)cc1 | -18.7 | -0.2 | -1.8% | -0.4 | -0.4 | -14.5
CN1C(=O)CC(N2CCN(C(c3ccccc3)c3ccccc3)CC2)C1=O (configuration not stated) | -9.3 | -0.2 | -0.3% | 0.6 | -0.6 | -1.7
O=c1[nH]nnc2c1sc1nc(N3CCOCC3)c3c(c12)CCCC3 | -4.5 | 0.6 | 0.5% | -8.0 | 1.2 | 1.6
Cc1cccc(NC(=O)CNC(=O)Cc2ccc3c(c2)OCCO3)c1C | -5.4 | -1.3 | -0.4% | . | -3.1 | 7.3
[O-]c1c[n+](-c2ccc(-[n+]3cc([O-])on3)cc2)no1 | 6.4 | -0.8 | 0.8% | 5.2 | -4.6 | -6.1
CCOC(=O)N1CCC(N2CCCC(C(=O)c3ccccc3OC)C2)CC1 (configuration not stated) | 10.1 | -0.5 | -0.3% | 2.5 | ? | 6.6
Cc1csc(NC(=O)c2ccc(Cl)cc2[N+](=O)[O-])n1 | 2.7 | 0.8 | 0.7% | -0.6 | 0.5 | -1.5
CCOC(=O)c1c(NC(=O)CC)sc(C(=O)N2CCCCC2)c1C | -4.3 | -0.6 | -4.7%[38.3 µM] | -0.5 | -1.2 | -1.3
COC(=O)C1=C(N)Oc2cc(C)n(Cc3cccnc3)c(=O)c2C1c1cc(OC)ccc1OC (configuration not stated) | 20.4 | -0.7 | 0.4% | -6.5 | -3.1 | 5.4
CCOC(=O)N1[C@@H]2C=C(C)[C@@H]2[C@@H]2[C@@H](C)C(=O)N21 | -11.5 | -0.1 | 4.5% | 0.9 | 6.6 | -3.2
O=C(Cc1cccs1)NCc1ccc(Cl)cc1Cl | -4.1 | 0.4 | -0.2% | -5.3 | 5.3 | -0.6
O=C(Cc1ccccc1)NNC(=O)C1CCCC1 | -11.5 | 0.4 | -2.6% | . | 0.1 | 7.9
O=c1[nH]sc2ccccc12 | -21.0 | 0.1 | 0.2% | 3.8 | -6.3 | 4.3
COc1ccc(C(=O)N2CCN(c3nc(C4CC4)nc4sc(C)c(C)c34)CC2)cc1 | -7.1 | 0.5 | 20.8% | -20.7 | -6.6 | -13.4
CNC(=O)CSc1nc2ccccc2c(=O)n1-c1cc(OC)ccc1OC | -5.7 | 0.4 | 2.3% | . | -1.7 | 4.5
O=C(C[C@H]1C(=O)N(CCc2ccccc2)C[C@@H]1c1ccccc1)Nc1ccccc1 | 1.8 | -0.7 | 0.5% | 2.2 | -8.3 | -0.1
O=C1/C(=C/c2ccccn2)SC(=S)N1c1ccc(O)cc1 | 1.2 | 1.5 | 4.9% | -11.8 | -1.2 | -6.9
N#Cc1c(-c2ccccc2)nc(-c2cccnc2)[nH]c1=O | -6.9 | 0.0 | -1.2% | 2.8 | -1.2 | -4.3
CC1CCCC(C)N1CCCNC(=O)Cn1ncc2c3ccccc3n(C)c2c1=O (configuration not stated) | -12.6 | -0.6 | 0.0% | -4.6 | -2.8 | -0.9
COc1ccc(CN2CCN(C(=O)Cn3nc(C(=O)O)c4ccccc4c3=O)CC2)cc1F | -15.0 | 2.0 | -0.1% | -24.4 | -4.3 | -17.4
Cc1nc([N+](=O)[O-])c(C(=O)OCc2ccccc2Br)n1C | -7.7 | 1.3 | 1.6% | -1.1 | -2.5 | -0.1
More structures.
SMILES | D2 potentiator | TRPML1 ag | PINK1 expr mod | CtBP-E1A inh | D2 agonist | Six1-Eya2 blk
CCOc1ccccc1CNC(=O)CN1C(=O)CSc2ccc(S(=O)(=O)N3CCOCC3)cc21 | -3.2 | 0.7&-0.6 | -0.5%&-0.4% | 0.0 | 2.7 | -0.4
O=S(CC1CC1(Cl)Cl)CC1CC1(Cl)Cl (configuration not stated) | -1.8 | 1.8 | -0.1% | -1.3 | -1.0 | 1.7
O=C(CC(c1ccccc1)c1ccccc1O)NCc1ccco1 (configuration not stated) | 0.4 | 0.5 | 3.6% | -2.7 | -0.7 | -2.7
O=S(=O)(c1ccc2c(c1)OCCO2)N(Cc1ccc(F)cc1)Cc1nnc(-c2cccs2)o1 | 11.6 | 4.2 | -2.1% | 2.3 | -0.3 | 0.8
O=C(Nn1cnnc1)c1cc2cc(Br)ccc2oc1=O | -15.0 | 0.2 | -0.3%[38.3 µM] | -2.3 | -2.1 | 0.1
Cc1nc2nc3c(c(=O)n2[nH]1)CCCC3 | -15.1 | -0.5 | -1.9% | 0.9 | 1.3 | -7.3
CN(C)CCn1c(C(=O)Nc2ccccc2)cc2ccccc21 | -31.3 | 0.5 | -1.6% | -5.7 | 2.3 | 3.0
CCOc1cc(/C=C2/C(=O)ON=C2C)cc(Br)c1O | 4.7 | 0.1 | 2.1% | . | -3.8 | -0.1
Cc1csc(NC(=O)C2CCN(S(=O)(=O)c3cccs3)CC2)n1 | -3.8 | -0.3 | -0.4% | -4.9 | -3.4 | 4.1
Cc1ccc2sc(N(CCN(C)C)C(=O)/C=C/c3cccs3)nc2c1C | -4.2 | 2.1 | 2.6% | . | 2.4 | 12.9
CC1NC(=O)c2cc3ccccc3cc2-n2c1nc1ccccc1c2=O (configuration not stated) | -2.8 | -0.5 | 1.9% | 1.2 | -10.5 | 0.9
O=C(COc1ccc(Cl)cc1)N1N=C(c2cccs2)CC1c1ccco1 (configuration not stated) | -2.1 | 0.5 | 24.7% | -3.9 | -3.4 | -6.4
CCN(CC)C(=O)CSc1nnc(CCCCCNC(=O)OC(C)(C)C)o1 | -13.6 | 0.9 | -0.3% | -11.5 | -1.1 | -0.8
Cc1cc(C(=O)Nc2c(C)n(C)n(-c3ccccc3)c2=O)c2ccccc2n1 | -3.2 | -0.7 | -1.7% | -1.6 | -0.5 | -0.7
C#Cc1ccc([C@H]2C=C(C(=O)NCc3nc4ccccc4[nH]3)O[C@@H](OCc3ccc(CO)cc3)C2)cc1 | -7.6 | 0.2 | 0.8% | -2.1 | -1.3 | -12.2
Cc1c(CCC(=O)N[C@@H](CC(C)C)C(=O)O)c(=O)oc2c(C)c3oc4c(c3cc12)CCCC4 | 6.5 | -0.6 | 3.2% | -4.8 | 7.4 | -5.1
CCn1c(NCc2ccccn2)nc2c1c(=O)n(C)c(=O)n2C | 13.5 | -0.5 | 4.2%[38.3 µM] | -15.5 | -1.2 | ?
COc1ccc(-n2ncc3c(N4CCCc5ccccc54)ncnc32)cc1 | -6.1 | 1.1 | 7.1% | 0.0 | -2.3 | 25.0
NC(=O)C1CCCN(C(=O)c2ccc(S(=O)(=O)N3CCCCCC3)cc2)C1 (configuration not stated) | -0.2 | 0.1 | -1.3% | 5.8 | 0.0 | 3.0
Fc1ccc(-n2cnnn2)c(F)c1 | -6.0 | 0.4 | 1.4%[38.3 µM] | 5.4 | -0.7 | -0.1
CN(CC(=O)Nc1ccc(Cl)cc1F)C1=NS(=O)(=O)c2ccccc21 | -34.6 | 0.0 | 0.7% | 9.2 | -0.4 | 2.7
Cc1ccc(NC(=S)N2CCCC(c3nc4ccccc4[nH]3)C2)cc1 (configuration not stated) | -11.4 | 0.6 | 0.4% | . | 2.4 | -1.3
O=C1OCc2ccc(NC(=O)c3sccc3Cl)cc21 | -18.5 | -0.1 | 9.0% | . | -4.3 | -0.2
O=[N+]([O-])c1ccc(Sc2cc[n+]([O-])c3ccccc23)c([N+](=O)[O-])c1 | -8.2 | 0.0 | -1.5% | -1.9 | 5.9 | -19.4
O=C(C1CC1)N(Cc1nc2ccccc2c(=O)[nH]1)Cc1cccs1 | 0.0 | . | -0.4% | 5.5 | -5.4 | 1.1

A section from the list above, as a working copy:
SMILES | D2 potentiator | TRPML1 ag | PINK1 expr mod | CtBP-E1A inh | D2 agonist | Six1-Eya2 blk
CCOc1ccccc1CNC(=O)CN1C(=O)CSc2ccc(S(=O)(=O)N3CCOCC3)cc21 | -3.2 | 0.7&-0.6 | -0.5%&-0.4% | 0.0 | 2.7 | -0.4
O=S(CC1CC1(Cl)Cl)CC1CC1(Cl)Cl (configuration not stated) | -1.8 | 1.8 | -0.1% | -1.3 | -1.0 | 1.7
O=C(CC(c1ccccc1)c1ccccc1O)NCc1ccco1 (configuration not stated) | 0.4 | 0.5 | 3.6% | -2.7 | -0.7 | -2.7

(continued)
SMILES | D2 potentiator | TRPML1 ag | PINK1 expr mod | CtBP-E1A inh | D2 agonist | Six1-Eya2 blk
CCOc1ccccc1NC(=S)N1CCN(c2nc(-c3ccc(F)cc3)cs2)CC1 | -10.2 | 0.1 | 2.9% | -9.1 | -4.1 | -13.8
CCN(CC)C(=O)COc1ccc(-c2ccccc2)cc1 | -20.7 | -0.7 | -0.3% | 3.7 | 0.0 | 0.5
CCOc1ccc(CNC(=O)CCc2cn(C)c3ccccc23)cc1OC | 0.8 | 0.6 | 0.7% | -4.0 | 2.0 | 9.2
Cc1cccc(N(Cc2cc3ccc(C)cc3[nH]c2=O)C(=O)c2ccco2)c1 | -10.3 | -0.6 | 1.2% | . | -4.1 | -5.7
COCCn1c(SCc2csc(-c3ccccc3)n2)nc2ccccc21 | -11.0 | 1.8 | 2.1%[38.3 µM] | 2.9 | -2.0 | 6.2
O=C(Nc1cccc(C(F)(F)F)c1)c1cccc(NS(=O)(=O)c2ccc(Br)c(C(=O)O)c2)c1 | -3.5 | 0.8 | 1.5% | 1.8 | 5.3 | 22.4
COc1cccc(NC(=O)CNCc2ccccc2)c1 | -7.1 | -0.5 | 0.0% | . | 0.5 | 2.5
Cc1ccnc(NS(=O)(=O)c2ccc(NC(=O)Cc3cccs3)cc2)n1 | -2.1 | -1.0 | -2.2% | 3.7 | -0.5 | -25.2
COc1ccccc1N1CCN(C(=O)[C@@H]2CCCN2C2=NS(=O)(=O)c3ccccc32)CC1 | -13.6 | -0.6 | 0.6% | 6.7 | -1.8 | 1.6
COc1ccc(S(=O)(=O)N(C)C[C@H]2Oc3ccc(NC(=O)C4CC4)cc3C(=O)N([C@H](C)CO)C[C@@H]2C)cc1 | 1.4 | 0.1 | 0.1% | -0.4 | -5.0 | 7.0
CCOC(=O)c1cc(NC(=O)N(CC)C2CCCCC2)c(C)nc1C | 3.2 | 2.5 | 3.2%[38.3 µM] | 5.0 | 6.9 | -0.7
O=C(CNC(=O)C12CC3CC(CC(C3)C1)C2)OCc1cc(=O)n2cc(Br)ccc2n1 | 0.0 | -0.5 | 0.4% | 1.3 | -0.9 | -0.1
O=C(O)c1cc(NCc2c(F)cccc2Cl)ccc1N1CCOCC1 | -7.3 | -0.7 | 3.3%[38.3 µM] | 0.1 | -3.4 | 2.1
CCOc1ccc(-c2ccc(/C=C3/C(=N)N4C(C)=CSC4=NC3=O)o2)c([N+](=O)[O-])c1 | 24.0 | 0.8 | 7.4% | 1.7 | 1.6 | ?

Screening data from PubChem.

Random draw from the library. About 1.3% of those tested had a hit in this group.
